Vif TR-FRET – HIV-1 Vif–A3G interaction blockers – biochemical, TR-FRET, GST-Vif 1-94, biotin-A3G peptide, dose response retest, primary screen (AID 1117319); inhibition, %, or IC50 in µM where a hit was titrated; TR-FRET GST-Vif / biotin-A3G peptide binding; higher % means a stronger effect; test concentration not given here; strong numbers were not always called active; actives 0.57% (n = 260,000);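 active = above the screen mean plus three standard deviations and confirmed in dose response; inconclusive = results disagree or hit not tested in dose response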;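 note: Vif residues 1-94 fused to GST binding biotinylated APOBEC3G peptide 110-148; 0% = full assay without inhibitor and 100% = GST in place of GST-Vif; retest series ran down from 100 µM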
LANA-H2A inh – blocks KSHV LANA binding to histone H2A/H2B; Q9QR71; cell-free LANA-H2A/H2B peptide, fluorescence polarization; inhibition, % (concentration not given with the values); actives 0.6% (n = 320,000); AID 2629; in the data active = inhibition mostly above about 10%, no sharp cut-off; inactive = mostly below about 6.7%;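 note: stock transfer was 7.5 nL into about 10 µL; 0% = median of vehicle wells and 100% = median of positive control wells; one replicate is shown; the record names a cut of 25% in any replicate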
A1 inh – inhibitors of the anti-apoptotic protein A1, read as caspase activation. MEF A1-2A-BIM cells, Caspase-Glo 3/7 luminescence, 3 h; percent of clofoctol response, vehicle zero. caspase activation, % (test concentration not listed). actives 0.066% (n = 330,000). AID 2462;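 active = over half of replicate activation scores above 10%, or exactly half above 10 with the replicate mean above 10; inconclusive = replicate mean below 10 yet half the replicates above 10; inactive = over half of replicates below 10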;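 note: wells of about 30 µL received 50 nL stock; many hits fall short of the cut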
Calb FLC – C. albicans growth modulation with fluconazole | C. albicans CaCi-2 (fluconazole-resistant clinical isolate) + fluconazole, Alamar Blue growth, 48 h | growth inhibition, % (test concentration not listed) | actives 0.57% (n = 300,000) | AID 1979;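 active = most replicates above 75%; inconclusive = exactly half above 75%; inactive = most below 75%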;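 note: all wells also contain fluconazole at 8 µg/ml as a sub-toxic cotreatment; 0% = median of DMSO wells and 100% = median of geldanamycin control wells; wells of about 8 µL received 7.5 nL stock; the first replicate is given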
RanGTP-Impb inh – disruptors of Ran-importin-beta complex formation – biochemical, FRET, CFP-Ran, YFP-importin-beta, homogeneous, primary screen; cell-free CFP-Ran/YFP-importin-beta FRET ratio; AID 2216; inhibition, % (concentration not given with the values); actives 1.1% (n = 300,000);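 active = most replicates above 15%; inconclusive = exactly half above 15%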;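 note: 0% = DMSO wells and 100% = Ran loaded with GDP instead of GTP; wells of about 40 µL received 100 nL stock; the first replicate is given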
T cruzi inh – T. cruzi replication inhibition; T. cruzi beta-gal in NIH3T3, luminescence, 90 h; actives 1.4% (n = 300,000); inhibition, % (no concentration beside the values); AID 1885;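 active = mean inhibition across valid replicates above about 55%, limit read from the data; inconclusive = mean below that limit but half or more replicates reach it; inactive = mean below it, under half of replicates reach it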;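 note: signal also drops with host cell toxicity which is not excluded here; 0% = plate median of DMSO wells and 100% = zero luminescence signal; higher percent means less beta-gal luminescence so fewer parasites; stock transfer was 50 nL into about 50 µL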
Beta apoptosis – blocks beta cell apoptosis; AID 435005; actives 0.8% (n = 300,000); protection from apoptosis, % (no concentration beside the values); INS-1E cytokine-induced death, ATP luminescence, 48 h; percent of positive-control rescue, neutral wells zero;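 active = all replicates at 75% or more, or half of them and the mean; inconclusive = half reach 75% but not the mean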;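 note: 0% = cytokine-treated negative control wells and 100% = positive control rescue; higher means more ATP so stronger rescue from cytokine killing; wells of about 40 µL received 100 nL stock; the first replicate is given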
AF4-AF9 inh – blocks AF4 peptide binding to human AF9. AlphaScreen, biotin-AF4 peptide binding to FLAG-AF9. inhibition, % at 10 µM. actives 0.47% (n = 350,000);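 active = every replicate reaching a set inhibition limit, whatever the replicate mean, cut at about 25% in these data; inconclusive = mean inhibition reaches that limit but some replicates miss it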;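 note: 0% = plate neutral control median and 100% = total signal loss; the record names both 10 and 1 µM as test concentration; the first replicate is given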
Target sequence (P42568 whole entry, looked up): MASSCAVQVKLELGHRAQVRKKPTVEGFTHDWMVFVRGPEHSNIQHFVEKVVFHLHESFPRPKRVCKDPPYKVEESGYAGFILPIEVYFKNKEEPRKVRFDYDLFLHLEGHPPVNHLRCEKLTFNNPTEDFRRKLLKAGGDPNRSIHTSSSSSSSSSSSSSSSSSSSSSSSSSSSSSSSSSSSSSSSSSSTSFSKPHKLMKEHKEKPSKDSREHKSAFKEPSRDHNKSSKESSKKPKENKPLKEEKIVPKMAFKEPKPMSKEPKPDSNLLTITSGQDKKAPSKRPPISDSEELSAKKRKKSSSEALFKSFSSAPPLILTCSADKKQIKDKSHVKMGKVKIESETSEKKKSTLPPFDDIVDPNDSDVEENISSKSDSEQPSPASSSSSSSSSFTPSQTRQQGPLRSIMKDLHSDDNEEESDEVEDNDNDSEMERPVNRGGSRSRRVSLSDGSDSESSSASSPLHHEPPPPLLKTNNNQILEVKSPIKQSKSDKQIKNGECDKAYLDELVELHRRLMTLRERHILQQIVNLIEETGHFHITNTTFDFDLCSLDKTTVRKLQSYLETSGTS
Numbers without * were called inactive; ? = inconclusive; . = not tested or not shown. This is a random part of the collection; about 4.3% have a hit in one of these screens.

SMILES	Vif TR-FRET	LANA-H2A inh	A1 inh	Calb FLC	RanGTP-Impb inh	T cruzi inh	Beta apoptosis	AF4-AF9 inh
Cc1ccc2c(c1)N(C(C)C(=O)NCc1ccccn1)C(=O)CO2 (stereo not given)	7%	1.4	1.4	6	-2.3	-2	5	-2.8
Cc1cccc(CCNC(=O)CCS(=O)(=O)c2ccc3nc(C)sc3c2)c1	.	1.6	0.2	2	-3.4	-5	-6	-2.9
O=C(CSc1nnc(-c2cccs2)n1-c1cccc(Cl)c1)c1cccc2c1OCCO2	-47%	-5.2	-0.1	-8	2.8	17	-2	.
NC(=O)CNc1ncc(C(F)(F)F)cc1Cl	.	-1.2	0.3	2	0.7	-10	.	-2.4
O=C(NCCc1cccc(Cl)c1)C1CCC(=O)N(Cc2ccc(Cl)cc2)C1 (stereo not given)	.	4.7	-0.5	2	-2.0	-3	3	-2.5
CC(OC(=O)C1=Cc2ccccc2OC1)C(=O)NCc1ccco1 (stereo not given)	?	-1.4	0.7	-33	5.1	-12	-2	-0.9
O=C(O)C1C2C=CC(C2)C1C(=O)NCCc1ccccc1 (stereo not given)	0%	-4.3	1.5	8	1.6	-4	-5	.
CC1CCN(c2c([N+](=O)[O-])c(=O)oc3ccccc23)CC1	2%	1.4	-1.0	5	-1.2	4	-5	.
Cc1ccc(NS(=O)(=O)c2ccccc2Cl)c2c1CC(C)(C)O2	1%	-0.5	0.6	-5	-1.4	19	-1	.
COC(=O)c1c(NC(=O)c2ccc(S(=O)(=O)N3CCOCC3)cc2)sc2c1CCN(C)C2	2%	1.0	0.1	.	.	.	-7	.
CN(Cc1ccccc1)C(=O)C1CCCN1S(=O)(=O)c1ccc2c(c1)n(C)c(=O)c(=O)n2C (stereo not given)	78%	24*	-0.6	-5	-0.9	0	1	-2.0
O=C(CC1SC(=Nc2ccccc2)N(Cc2ccccn2)C1=O)Nc1ccc(Br)cc1 (stereo not given)	13%	-1.8	0.5	-2	2.9	33	.	.
CCOC(=O)c1c(C)n(-c2ccc(OC)cc2)c2ccc(O)c(CN(C)C)c12	12%	4.5	0.4	8	-3.2	31	10	15
CCOc1ccc(CCNC(=O)COC(=O)c2ccco2)cc1OCC	-2%	-1.2	0.4	2	-3.4	1	3	.
Cc1ccc(N/N=C(\C#N)C(=O)c2ccsc2)cc1	-5%	1.4	-0.5	2	-5.0	-10	14	-3.2
Cc1cccc(OCC(=O)NC(C)C(=O)N/N=C/c2c(OCc3ccccc3)ccc3ccccc23)c1 (stereo not given)	2%	1.1	-1.2	13	-3.5	-62	5	2.1
O=C(NCCc1cccnc1)C1CCC(=O)N(Cc2cccc(C(F)(F)F)c2)C1 (stereo not given)	12%	-8.0	-0.4	-1	0.4	-13	.	0.2
Cc1c(=O)n(OCc2ccccc2)c2ccccc2[n+]1[O-]	?	0.5	-1.2	-10	-0.4	-5	2	.
COc1ccc(-c2nnc(SCC(=O)Nc3ccc(Cl)cc3)n2C)cc1	0%	-0.3	0.0	-8	6.9	-8	-1	1.3
CCCCc1c(C)c(C#N)c2[nH]c3ccccc3n2c1=O	1%	1.7	-0.5	6	4.0	-20	43	.
CCCS(=O)(=O)N1CCCC(C(=O)NCc2ccc3c(c2)OCO3)C1 (stereo not given)	0%	-0.8	0.6	-30	6.3	-7	0	.
Cc1ccc(C(=O)CC(=O)c2ccccc2)cc1	.	0.8	-5.8	-3	-0.7	-7	6	1.6
COCCNC(=O)Cn1nc(C(F)(F)F)c(Cl)c1C	3%	7.7	0.5	2	0.6	-20	0	.
Cc1nnc2n(c1=O)C(CS(=O)(=O)c1ccc3ccccc3c1)CS2 (stereo not given)	.	3.6	-0.3	-1	-1.1	4	-4	0.4
CC/C(=N/OC(=O)c1cccc(C)c1)C(=O)c1cccs1	-4%	3.4	-0.1	4	3.8	-12	.	-1.1
COc1cc(OC)c(C(=O)OCC(=O)Nc2cc(C)on2)cc1OC	-5%	-9.0	0.5	9	-1.8	4	-1	-1.9
Cc1cccc(OCC(=O)NNC(=O)C2CCN(c3ncnc4sc(C)c(C)c34)CC2)c1	2%	3.2	1.6	17	?	0	-5	-0.7
CC1CCC2(CC1)NC(=O)N(NC(=O)CSc1nnc(NC3CC3)s1)C2=O (stereo not given)	-14%	6.8	-1.8	.	.	.	4	-0.8
CCCCN(C)CCCNC(=O)C1CC(=O)N(Cc2ccc(OC)cc2)C1 (stereo not given)	3%	-1.8	0.1	1	0.9	11	-9	.
CCOC(=O)C1=C(C)NC(=O)C(C#N)C1c1ccncc1 (stereo not given)	2%	-5.4	1.0	3	4.0	-22	0	3.5
COC(=O)c1ccccc1N1C(=O)C2C(C1=O)C1C=CC2C12CC2 (stereo not given)	9%	-2.1	0.4	-15	-3.5	0	-1	.
Cc1ccc(C(=O)N/C(=C/c2cccnc2)C(=O)O)cc1	-6%	-11	0.3	?	-0.6	2	-2	3.7
NS(=O)(=O)c1ccc(N=Nc2c(O)[nH]c3ccc(Br)cc23)cc1	.	-1.2	-1.1	4	-9.0	27	-11	-20
CC1(c2nnc(Cc3ccccc3)o2)CC(c2cccc(F)c2)=NO1 (stereo not given)	.	-6.0	0.0	3	1.5	5	4	-3.6
CCOc1ccc(NC(=O)C(C)C(Cc2ccc(C)cc2)C(=O)O)cc1 (stereo not given)	-7%	4.1	-1.0	-4	3.3	-11	2	-2.6
O=C(c1cc2sccc2n1Cc1ccc(F)cc1)N1CCN(c2nc3ccccc3s2)CC1	-19%	4.6	-2.4	-2	-2.2	41	100*	.
CCn1c(C)cc(/C=C2\NC(=O)N(CC(=O)Nc3cccc(C)c3)C2=O)c1C	6%	2.7	1.3	-10	2.2	-6	3	.
Cc1cccc(S(=O)Cc2ccc(C(=O)N3CCN(C(=O)c4ccco4)CC3)o2)c1 (stereo not given)	6%	-7.4	0.3	21	3.0	1	0	-25
Cc1ccc(-c2nc(-c3ccccn3)sc2CC(=O)O)cc1	.	4.9	-0.2	-2	2.1	-12	-8	-9.9
O=C1CC(c2ccccc2)CC(=NCCO)/C1=C(\O)CCCN1C(=O)c2ccccc2C1=O (stereo not given)	17%	-4.4	0.5	64*	-1.2	10	7	-2.8

13 compounds out of the list, arranged by length of the SMILES, highest first:
SMILES	Vif TR-FRET	LANA-H2A inh	A1 inh	Calb FLC	RanGTP-Impb inh	T cruzi inh	Beta apoptosis	AF4-AF9 inh
CN(Cc1ccccc1)C(=O)C1CCCN1S(=O)(=O)c1ccc2c(c1)n(C)c(=O)c(=O)n2C (stereo not given)	78%	24*	-0.6	-5	-0.9	0	1	-2.0
CCn1c(C)cc(/C=C2\NC(=O)N(CC(=O)Nc3cccc(C)c3)C2=O)c1C	6%	2.7	1.3	-10	2.2	-6	3	.
O=C(CSc1nnc(-c2cccs2)n1-c1cccc(Cl)c1)c1cccc2c1OCCO2	-47%	-5.2	-0.1	-8	2.8	17	-2	.
O=C(NCCc1cccnc1)C1CCC(=O)N(Cc2cccc(C(F)(F)F)c2)C1 (stereo not given)	12%	-8.0	-0.4	-1	0.4	-13	.	0.2
NS(=O)(=O)c1ccc(N=Nc2c(O)[nH]c3ccc(Br)cc23)cc1	.	-1.2	-1.1	4	-9.0	27	-11	-20
Cc1nnc2n(c1=O)C(CS(=O)(=O)c1ccc3ccccc3c1)CS2 (stereo not given)	.	3.6	-0.3	-1	-1.1	4	-4	0.4
COc1ccc(-c2nnc(SCC(=O)Nc3ccc(Cl)cc3)n2C)cc1	0%	-0.3	0.0	-8	6.9	-8	-1	1.3
CC1(c2nnc(Cc3ccccc3)o2)CC(c2cccc(F)c2)=NO1 (stereo not given)	.	-6.0	0.0	3	1.5	5	4	-3.6
COc1cc(OC)c(C(=O)OCC(=O)Nc2cc(C)on2)cc1OC	-5%	-9.0	0.5	9	-1.8	4	-1	-1.9
CC/C(=N/OC(=O)c1cccc(C)c1)C(=O)c1cccs1	-4%	3.4	-0.1	4	3.8	-12	.	-1.1
Cc1ccc(-c2nc(-c3ccccn3)sc2CC(=O)O)cc1	.	4.9	-0.2	-2	2.1	-12	-8	-9.9
Cc1ccc(N/N=C(\C#N)C(=O)c2ccsc2)cc1	-5%	1.4	-0.5	2	-5.0	-10	14	-3.2
COCCNC(=O)Cn1nc(C(F)(F)F)c(Cl)c1C	3%	7.7	0.5	2	0.6	-20	0	.

Additional structures
SMILES	Vif TR-FRET	LANA-H2A inh	A1 inh	Calb FLC	RanGTP-Impb inh	T cruzi inh	Beta apoptosis	AF4-AF9 inh
CCOc1ccccc1NC(=O)CSc1nc2c(c(=O)n(C)c(=O)n2C)n1C	1%	-2.0	-0.1	1	1.7	-11	4	1.1
COc1ccc(S(=O)(=O)N(C)C[C@H]2Oc3c(NC(=O)CCC(F)(F)F)cccc3C(=O)N([C@H](C)CO)C[C@@H]2C)cc1	.	-0.2	0.3	.	.	.	-5	-8.8
Cc1cccc(C)c1OCC(=O)Nc1oc(-c2ccccc2)c(-c2ccccc2)c1C#N	0%	-3.5	-0.1	4	3.3	2	14	.
O=C(COC(=O)c1cc(Br)ccc1O)NNC(=O)c1ccc([N+](=O)[O-])cc1	9%	.	-0.5	-3	-1.1	-2	3	-0.5
COCC(=O)Nc1nc2ccccc2s1	2%	0.8	-4.7	-2	0.9	-18	4	.
O=C(COC(=O)c1ccccc1-n1cnnn1)c1ccc(F)cc1	6%	-3.4	0.1	.	0.5	-13	5	5.1
CN(C)c1cccc(C(=O)Nc2nc3ccccc3[nH]2)c1	.	6.9	-8.0	-5	2.4	-12	6	25
O=C(c1ccccc1Cc1ccccc1)N1CCN(S(=O)(=O)c2ccc(F)cc2)CC1	-1%	-0.4	0.6	-3	-1.0	1	.	-2.4
CCOCCCNC(=O)COC(=O)/C=C/c1ccc(S(=O)(=O)N2CCc3ccccc32)cc1	.	0.0	0.5	0	-1.5	-2	-3	2.3
Cc1ccc(CN(Cc2ccco2)C(=S)NCC(=O)NC2CC2)cc1	15%	5.0	-0.1	-26	3.4	0	-12	4.1
COC(=O)C(NC(C)=O)(Nc1ccccc1)C(=O)OC	2%	-1.2	0.1	-15	-2.0	-2	-5	.
COCCn1c(=NC(=O)CCS(=O)(=O)c2ccccc2)sc2ccccc21	-6%	1.5	-0.4	-1	-1.6	5	-1	-1.8
O=C(CCN1C(=O)/C(=C/c2ccc(F)cc2)SC1=S)NNC(=O)c1ccncc1	.	-2.3	0.1	1	1.7	0	-3	-6.2
COc1ccccc1CNCc1ccc(OC)c2ccccc12	.	-4.2	-0.2	-12	4.4	20	-1	2.2
Fc1ccccc1COc1cccc2cccnc12	.	-4.8	-4.4	4	1.4	-1	-7	-3.9
COc1ccc(-c2nc3cc(C)ccn3c2NC(=O)c2c(F)cccc2Cl)cc1	-1%	-0.7	0.6	-2	0.2	-5	7	0.2

Screens as filed in PubChem BioAssay.
